# PrP 5UTR inh: inhibition of PrP 5' UTR reporter expression. AID 488862. inhibition, % (test concentration not listed). actives 0.35% (n = 340,000). cell-based PrP 5' UTR mRNA reporter, plate reader;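 active = every replicate at 50% or more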;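 note: 0 = median of the neutral control wells; tested in H4 reporter cells; numbers are from one replicate; inactives centre near -14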
# Autofluor counter: counter-screen for toxin protease inhibitors: compound fluorescence. fluorescence intensity (test concentration not listed). compound autofluorescence counterscreen, microsphere flow cytometry; stronger effect = higher value. actives 3.1% (n = 360,000);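 active = at least 3 SD above the mean of all compounds, about 16000 in these data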;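 note: 100 nL of 1 mM stock went into each well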
# Mtb hypoxia inh: reduces hypoxia-regulated biosensor signal in M. tuberculosis; AID 1159583; fluorescence inhibition, % (test concentration not listed); M. tuberculosis hypoxia-regulated fluorescent reporter, fluorescence; actives 0.1% (n = 300,000);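 active = 35 to 45% if threefold the growth effect, above 45% if 1.5-fold the growth effect; inactive = the rest, general growth blockers included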;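 note: wells of about 50 µL received 100 nL stock; 0% = vehicle wells and 100% = reference inhibitor wells; whole bacteria with a GFP reporter of the hypoxia response; strong numbers were not always called active; many hits fall short of the cut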
# Sa RN4220 lethal: kills Staphylococcus aureus RN4220 | S. aureus RN4220 growth, OD600, 16 h | inhibition, % (concentration not given with the values) | actives 0.33% (n = 330,000) | AID 1259311;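 active = z-score of -3 or lower and OD600 up to 0.18 on both plates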;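 note: plate controls were untreated cells for no effect and reference antibiotic for full effect; stock transfer was 100 nL into about 80 µL; one replicate is shown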
# BJeLR viability: kills HRASV12-expressing BJeLR cells | actives 0.17% (n = 300,000) | BJeLR (HRASV12) viability, CellTiter-Glo ATP luminescence, 48 h; reference of the scale not given here | inhibition, % (no concentration beside the values);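 active = replicate mean above 50%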;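 note: 50 nL library stock added to about 25 µL; numbers are from one replicate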
# Sa ugtP lethal: compounds lethal to S. aureus RN4220 ugtP deletion mutant; AID 1259309; growth inhibition, % (concentration not given with the values); actives 0.54% (n = 330,000); OD600 growth, 16 h; some inactives read as strong as hits;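 active = z-score under -3 and OD600 up to 0.15 on both plates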;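 note: plate controls were untreated wells for no effect and antibiotic for full effect; wells of about 80 µL received 100 nL stock; the first replicate is given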
# Mtb hypoxia inh growth: recorded beside Mtb hypoxia inh, whose call it bears; growth inhibition, %; measured here: M. tuberculosis growth (absorbance);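 0% = vehicle and 100% = reference antibiotic; read after six days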
# Numbers without * were called inactive; nt = no result given.
SMILES,PrP 5UTR inh,Autofluor counter,Mtb hypoxia inh,Mtb hypoxia inh growth,Sa RN4220 lethal,BJeLR viability,Sa ugtP lethal
COc1ccc(NC(=O)c2cc(Br)ccc2Cl)c([N+](=O)[O-])c1,-10,2792,-7,1,4.5,2,-2
O=C(NCCN1CCOCC1)C1CCC(=O)N1C1CCCCC1 (centres undefined),-12,10559,2,1,6.2,5,8
CCC(C)c1ccc(O)c(NC(=O)c2cncc(Br)c2)c1 (centres undefined),6,8088,0,5,-5.5,2,-8
O=C(N/N=C/c1ccc(OCc2cnc(Cl)s2)cc1)c1ccncc1,-30,4586,nt,nt,nt,-2,nt
COc1ccc(C(=O)N2CCN(Cc3cc(OC)c(O)c(OC)c3)CC2)cc1OC,-5,6787,12,2,0.8,12,3
O=C(c1cccc(S(=O)(=O)N2CCCC2)c1)c1cccc(S(=O)(=O)N2CCCC2)c1,4,2632,8,4,0.2,14,9
Cc1ccsc1C=NNC(=O)CNC(=O)c1ccco1,nt,nt,16,6,5.0,nt,2
CCCCN(C(=O)c1cccc(S(=O)(=O)N(CC)c2ccccc2)c1)c1c(N)n(CCCC)c(=O)[nH]c1=O,1,2878,-6,-1,1.1,nt,5
N#CC(C#N)=Cc1ccc(O)c(O)c1,6,4464,10,-1,5.6,nt,-7
O=C(O)c1ccccc1NS(=O)(=O)c1ccc(NN=Cc2ccc(O)c(O)c2)c([N+](=O)[O-])c1,nt,nt,8,1,20,nt,10
O=C(NCc1ccc(F)cc1)c1cc2c(cc1Cl)N1CCCCCC1=NS2(=O)=O,-28,3076,-1,-5,0.9,nt,7
O=C(Nc1ccc(Oc2ccccc2)cc1)c1cnc2n(c1=O)CCS2,-40,5299,6,4,2.1,10,12
CC(=O)NC1=C(N2CC2C)C(=O)C(NC(C)=O)=C(N2CC2C)C1=O (centres undefined),-10,3666,1,7,2.5,nt,3
CC(=NNC(=O)c1ccco1)c1ccc(NC(=O)c2ccccc2)cc1,nt,nt,12,8,3.3,nt,2
CCC(C)c1ccc(NC(=O)C2=CC=CN3CCS(=O)(=O)N=C23)cc1 (centres undefined),-34,2924,20,30,1.9,nt,8
CCOc1ccc2nc(SCC(=O)Nc3ncccn3)[nH]c2c1,-13,2395,-4,7,11,0,4
COCCNC(=O)C1CC(c2ccc(C(F)(F)F)cc2)=NO1 (centres undefined),-26,2905,-3,0,3.4,12,-1
O=C(NNc1cccc(Cl)n1)Nc1ccc(Cl)cc1,-13,9662,9,11,2.4,1,1
COc1cc2c(cc1O)C1Cc3cc(OC)c(OC)cc3C(C2)N1C (centres undefined),nt,nt,6,6,6.1,nt,1
CC1C(=O)Nc2ccccc2N1C(=O)c1c(F)cccc1F (centres undefined),-28,3429,1,-5,1.3,-2,7
CCOc1cc(CNC(CC)CO)ccc1OCC(=O)Nc1cccc(C(F)(F)F)c1 (centres undefined),-5,4740,12,13,0.4,5,0
Cc1ccc(N=C2NC(=O)/C(=C/C=C/c3ccco3)S2)cc1C,-54,2137,13,3,8.7,-9,-12
Cc1ccc(S(=O)(=O)CCc2nnc(N)s2)cc1,-39,7225,13,3,1.3,-2,8
Cc1nc(Nc2nc3ccccc3o2)nc(C)c1C,-36,3282,-4,-16,1.3,6,9
N#Cc1ccc(S(=O)(=O)N2CCCN(c3ccc(C(F)(F)F)cn3)CC2)cc1,-25,5469,6,-6,4.9,11,1
# The results go on.
SMILES,PrP 5UTR inh,Autofluor counter,Mtb hypoxia inh,Mtb hypoxia inh growth,Sa RN4220 lethal,BJeLR viability,Sa ugtP lethal
CN(C)S(=O)(=O)c1ccc(C(=O)NCC(=O)NN=Cc2cccs2)cc1,nt,nt,-3,9,6.6,nt,3
O=C(CN1CCCC1)Nc1cc(F)ccc1F,-24,4569,5,4,0.4,6,6
CC(=NNC(=O)c1ccc2c(c1)OCO2)c1ccc2c(c1)OCO2,nt,nt,17,6,-7.1,nt,4
Cc1ccc(S(=O)(=O)N2CCCC(C(=O)NCCC(C)C)C2)cc1 (centres undefined),1,3903,-2,2,8.8,4,3
CCOc1ccccc1Nc1nc(-c2sc(NC(=O)c3cccc(Cl)c3)nc2C)cs1,-23,3445,5,0,2.7,14,-14
O=C(O)c1ccc(S(=O)(=O)N2CCCc3ccccc32)cc1,-12,2975,2,-6,7.5,-8,5
Cc1ccccc1OCC(=O)NCCN1CCCC1,-16,4776,nt,nt,-0.1,nt,5
CCN(/C=N/c1sc2c(c1C#N)CC(C)(C)NC2(C)C)CC,-12,8263,nt,nt,nt,5,nt
CCN1/C(=C2/SC(=S)N(NC(C)=O)C2=O)Sc2ccc(OC)cc21,-21,4674,5,3,1.5,-14,6
O=C(c1ccco1)N(Cc1ccc(Cl)cc1)Cc1ccco1,2,4407,5,-2,2.6,0,12
COCCNc1c(-c2cc3ccc(C)c(C)c3[nH]c2=O)nc2ccccn12,-86,3274,14,12,2.8,-6,12
O=C(O)CSc1nc(-c2cccs2)cc(C(F)(F)F)n1,-22,4462,5,-4,7.7,-5,10
O=C(CSc1nc2ccccc2o1)NCCOc1ccccc1,-16,10087,7,1,2.3,2,3
CC(=O)c1ccc(NC(=O)CN2c3cccc4cccc(c34)S2(=O)=O)cc1,-12,4193,10,8,1.0,nt,4
Nc1nnnn1N=Cc1ccc(Br)cc1,nt,nt,9,-4,3.8,nt,3
COC(=O)c1sccc1S(=O)(=O)NCc1ccc(S(N)(=O)=O)cc1,-3,6179,4,-1,-0.7,-1,-2
CCN(CCNS(=O)(=O)c1ccc2[nH]c(=O)sc2c1)c1ccccc1,-15,6034,6,6,-14,3,99*
COc1ccc(CN(C)C(C)C(=O)Nc2ccc(S(=O)(=O)N3CCCC3)cc2)c(OC)c1OC (centres undefined),nt,nt,15,1,-1.1,9,4
S=c1nc2ccccc2c2nc(-c3cccnc3)[nH]n12,-6,5191,19,12,13,-15,3
CN=C1SC(CC(=O)Nc2ccc(F)cc2F)C(=O)N1/N=C(\C)c1cccc(OCC(=O)O)c1 (centres undefined),-9,4773,nt,nt,nt,1,nt
Cc1cc(C)n2c(SCC(=O)N(C)C3CCCCC3)nnc2n1,7,4596,-7,-15,1.7,-9,-2
CCN(CC)CCNC(=O)NC(=O)c1ccc(Cl)cc1,-11,9004,5,7,4.2,8,1
Cc1ccc(N2CCN(S(=O)(=O)c3ccc(F)cc3)CC2)c(C)c1,-49,5950,nt,nt,6.1,-11,2
Cc1cccc(OCC(O)Cn2c(-n3nc(C)cc3C)nc3c2c(=O)[nH]c(=O)n3C)c1 (centres undefined),-3,2618,nt,nt,0.4,4,2
NC(=S)NN=C1c2cc(S(=O)(=O)N3CCOCC3)ccc2-c2ccc(S(=O)(=O)N3CCOCC3)cc21,-3,11454,6,-8,-4.3,-11,-16

# Some of the entries so far, tab-delimited.
compound	PrP 5UTR inh	Autofluor counter	Mtb hypoxia inh	Mtb hypoxia inh growth	Sa RN4220 lethal	BJeLR viability	Sa ugtP lethal
NC(=S)NN=C1c2cc(S(=O)(=O)N3CCOCC3)ccc2-c2ccc(S(=O)(=O)N3CCOCC3)cc21	-3	11454	6	-8	-4.3	-11	-16
Nc1nnnn1N=Cc1ccc(Br)cc1	nt	nt	9	-4	3.8	nt	3
Cc1cc(C)n2c(SCC(=O)N(C)C3CCCCC3)nnc2n1	7	4596	-7	-15	1.7	-9	-2
CCN(CCNS(=O)(=O)c1ccc2[nH]c(=O)sc2c1)c1ccccc1	-15	6034	6	6	-14	3	99*

# Part of the list above, as labelled records.
CCN(CC)CCNC(=O)NC(=O)c1ccc(Cl)cc1
  PrP 5UTR inh: -11
  Autofluor counter: 9004
  Mtb hypoxia inh: 5
  Mtb hypoxia inh growth: 7
  Sa RN4220 lethal: 4.2
  BJeLR viability: 8
  Sa ugtP lethal: 1

O=C(c1ccco1)N(Cc1ccc(Cl)cc1)Cc1ccco1
  PrP 5UTR inh: 2
  Autofluor counter: 4407
  Mtb hypoxia inh: 5
  Mtb hypoxia inh growth: -2
  Sa RN4220 lethal: 2.6
  BJeLR viability: 0
  Sa ugtP lethal: 12

CCN1/C(=C2/SC(=S)N(NC(C)=O)C2=O)Sc2ccc(OC)cc21
  PrP 5UTR inh: -21
  Autofluor counter: 4674
  Mtb hypoxia inh: 5
  Mtb hypoxia inh growth: 3
  Sa RN4220 lethal: 1.5
  BJeLR viability: -14
  Sa ugtP lethal: 6

O=C(c1cccc(S(=O)(=O)N2CCCC2)c1)c1cccc(S(=O)(=O)N2CCCC2)c1
  PrP 5UTR inh: 4
  Autofluor counter: 2632
  Mtb hypoxia inh: 8
  Mtb hypoxia inh growth: 4
  Sa RN4220 lethal: 0.2
  BJeLR viability: 14
  Sa ugtP lethal: 9

# (more compounds)
SMILES,PrP 5UTR inh,Autofluor counter,Mtb hypoxia inh,Mtb hypoxia inh growth,Sa RN4220 lethal,BJeLR viability,Sa ugtP lethal
COc1ccc(CNC(=O)C2CCC(CNc3c(N4CCCCC4)c(=O)c3=O)CC2)cc1 (centres undefined),-9,3766,-9,5,2.8,1,8
CC1C=CCC2C(=O)N(c3cccc(C(=O)Nc4ccc(F)cc4)c3)C(=O)C12 (centres undefined),-7,5483,3,15,-1.1,-4,3
CN=c1scc(-c2ccccc2F)n1N=Cc1ccc(O)c(O)c1O,nt,nt,15,8,1.0,nt,8
c1ccc(-c2ncc(-c3ccn[nH]3)s2)cc1,-41,4320,18,13,6.9,12,-4
COc1ccc(N2CCN(C(=O)c3cc4ccccc4o3)CC2)cc1,-16,6362,0,-2,3.5,-11,1
COc1cc(OC)cc(C(=O)NC2CCN(CC(=O)Nc3cccc4ccccc34)CC2)c1,-11,2829,11,7,4.3,-4,10
O=C(NCc1ccccc1Cl)c1ccc2ccccc2n1,-38,4930,17,2,6.6,9,10
CCC(/C=C1\Sc2ccc(OC)cc2N1CCO)=C\c1sc2ccc(OC)cc2[n+]1CCO,19,1224,nt,nt,99*,nt,96*
CCN1Cc2c(cc(OC)c(OC)c2OC)-c2ccccc2S1(=O)=O,10,3820,-2,4,2.5,nt,0
COc1ccc(C(=O)Nc2ccccc2C(=O)Nc2ccccn2)cc1,-56,3642,nt,nt,nt,5,nt
C/C(CCS(=O)(=O)c1ccccc1)=N/O,-4,5106,nt,nt,nt,2,nt
COc1ccc(S(=O)(=O)N2CCC(C(=O)N3CCCCC3)CC2)cc1Cl,-12,5521,3,7,-2.0,1,0
CCC(C)NS(=O)(=O)c1ccc(OCC(=O)Nc2ccc3c(c2)OCO3)cc1 (centres undefined),-21,12474,10,15,4.5,6,3
CC(NC(=O)c1cccc(Br)c1)c1ccccc1 (centres undefined),-20,2207,nt,nt,5.6,0,-2
O=S(Cc1ccc(Cl)cc1)c1ncc(CO)n1Cc1ccccc1 (centres undefined),-15,4513,2,5,1.3,-12,7
CCC(C(=O)N1CCC(N2CCCCC2)CC1)n1nc(C)c2sc3ccccc3c2c1=O (centres undefined),-15,5550,6,-1,-0.6,-1,1
COc1ccc(S(=O)(=O)N2CCCCCC2)cc1C(=O)NCc1cccs1,-8,4042,5,5,2.4,nt,21
O=C(CCN1C(=O)C2C3C=CC(C4CC34)C2C1=O)OCC(=O)c1ccccc1 (centres undefined),-14,5993,11,-9,-2.1,11,4
Cc1ccc(S(=O)(=O)c2c(N)n(/N=C/c3ccco3)c3nc4ccccc4nc23)cc1C,-8,2315,nt,nt,nt,-1,nt
CC1=NCC(C)c2c1[nH]c1ccccc21 (centres undefined),0,5619,-51,60,4.1,4,-1
COc1ccc(C(=O)O/N=C(\N)c2cccc(C)c2)cc1OC,-44,3658,4,6,0.9,13,-3
CC1CC(C)CN(S(=O)(=O)c2ccc(C(=O)N(c3ccccn3)C3CCCCC3)cc2)C1 (centres undefined),-54,4498,14,14,4.1,4,5
COc1ccccc1CNC(=O)c1cc2c(=O)[nH]c3ccccc3c2n1C,nt,nt,8,3,5.8,2,-9
O=C(CCCn1cc([N+](=O)[O-])cn1)NCc1ccccc1,-3,4894,2,-5,0.8,-5,1
Cc1ccc(-n2c(SCc3nc4ccccc4c(=O)[nH]3)nnc2-c2ccccc2O)cc1,-3,2100,2,-1,2.4,-6,0
Cc1ccc(-c2nc(N3CCN(C)CC3)c3ccccc3n2)cc1,-4,3473,5,10,-2.6,-6,17

# Source: PubChem (several laboratories)

# Not a hit list (roughly 4% active in at least one column).
